Screening results deposited in PubChem by several laboratories.
UUG fidelity – modulators of start codon recognition fidelity in yeast; S. cerevisiae UUG-firefly luciferase reporter, luminescence/redox ratio; activity score, % at 18.7 µM; 350,000 compounds, 0.13% hits; AID 602363;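 active = replicate mean at a twofold rise or more, about +100% in these data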;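 also: firefly luciferase made from a UUG start codon reports start codon fidelity; reporter light over untreated wells divided by growth signal over untreated wells; some hits fall short of that in this replicate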
Rce1 inhib – blocks yeast Ras-converting enzyme; Q03530; yeast membranes, quenched prenylated peptide cleavage fluorescence; calls only; 290,000 compounds, 0.27% hits; AID 2563;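 active = fall in fluorescence gain of 50% or more versus controls, with final raw signal at or below 3038400; inconclusive = same 50% fall but final raw signal above 3038400; inactive = fall in fluorescence gain under 50%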;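 also: plate controls were neutral control wells for no effect and wells lacking membranes for full effect; tested at 10 µM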
Target sequence (Q03530 whole entry, looked up): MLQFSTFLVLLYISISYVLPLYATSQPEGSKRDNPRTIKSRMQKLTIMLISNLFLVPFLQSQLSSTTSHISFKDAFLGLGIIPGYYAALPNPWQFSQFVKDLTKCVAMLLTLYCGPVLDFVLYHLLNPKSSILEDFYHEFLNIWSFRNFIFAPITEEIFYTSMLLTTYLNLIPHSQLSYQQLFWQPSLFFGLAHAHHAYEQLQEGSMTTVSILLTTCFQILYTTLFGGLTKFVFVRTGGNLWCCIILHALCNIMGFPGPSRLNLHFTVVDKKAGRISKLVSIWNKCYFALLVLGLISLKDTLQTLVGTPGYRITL
PABP polyA inh – PABP-poly(A) binding inhibition; PABP-poly(A) RNA binding, fluorescence polarization; inhibition, % at 35 µM; 290,000 compounds, 1% hits; AID 2014;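 active = 50% or more with normal probe brightness, or confirmed in later tests; inconclusive = above 50% with abnormal brightness, or retests that disagree; inactive = below 50% or failed in later tests; about a fifth of its hits are not listed in these tables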;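 also: calls also rest on retests at 20 µM and on dose response follow-up; controls were probe without protein and protein plus probe with vehicle; some compounds called inactive have numbers as strong as hits; many hits fall short of the cut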
CSC inhib – cancer stem cell inhibition; inhibition, % at 7.5 µM; 300,000 compounds, 1.1% hits; cancer stem cell-like cells viability, luminescence;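 active = mean at 75% or more and at least half the replicates too; inconclusive = mean and replicates disagree; tested in HMLE shEcad cells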;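 also: 0% = median of negative and 100% = median of positive control wells; the first replicate is given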
MT1-MMP act inh – inhibitors of human MT1-MMP activation | P50281 | HT1080 RFP-PRO-GFP cells, GFP/RFP ratio fluorescence, overnight; percent of plate control window, DMSO zero | GFP/RFP ratio change, % at 20 µM | 360,000 compounds, 0.061% hits | AID 651647;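 active = GFP/RFP ratio change of at least 30% with cell ATP level not reduced by more than half and red fluorescence within 50% of control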; also: strong numbers were not always called active
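Assay system: HT1080 cells carrying an RFP-PRO-GFP reporter | Dosing: Single dose of 20 µM compound, 1% DMSO final | Incubation: Cells overnight before dosing, compound overnight, 37 °C, 5% CO2 | Evaluation: GFP/RFP fluorescence ratio | Control set: DMSO and RFP-L50D-GFP cell wells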
HIV Env fusion – HIV envelope-mediated fusion inhibition; HeLa-JRFL Env/CEM21 cell fusion, luciferase; inhibition, % at 12.3 µM; 360,000 compounds, 1.1% hits; AID 651610;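 active = mean replicate inhibition score of at least 50 and every replicate individually at or above 50; inconclusive = only one of the two criteria met; inactive = mean below 50 and not all replicates reaching 50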;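 also: 0% = plate neutral controls and 100% = maraviroc near 300 nM; one replicate is shown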
eIF4H FP inh – inhibitors of RNA binding by human eIF4H; Q15056; eIF4H fluorescence polarization binding assay; AID 2012; 290,000 compounds, 0.94% hits; inhibition, % at 35 µM;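 active = 50% or more with normal probe brightness, or confirmed in later tests; inconclusive = above 50% with abnormal brightness, or retests that disagree; inactive = below 50% or failed in later tests; about a fifth of its hits are not listed in these tables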;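 also: calls also rest on retests at 20 µM and on dose response follow-up; 0% = protein and probe with vehicle and 100% = probe without protein; strong numbers were not always called active; many hits fall short of the cut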
eIF4H FP inh retest – recorded beside eIF4H FP inh, whose call it bears; inhibition, %; compound at 20 µM; confirmation average;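 mean of two retest wells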
PABP polyA inh retest – further read-out of PABP polyA inh, marked with its call; inhibition, %; compound at 20 µM; confirmation repeats;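 mean of two retest wells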
MT1-MMP act inh RFP – also measured in MT1-MMP act inh; calls as there; RFP signal change, %; measured here: RFP expression control read;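 0 = vehicle wells; hits needed this value within 50% of zero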
* marks the source's active call; other numbers are inactive results; i = inactive; u = inconclusive; x = not tested or not shown.

The first 3 compounds, to show the layout:
SMILES | UUG fidelity | Rce1 inhib | PABP polyA inh | CSC inhib | MT1-MMP act inh | MT1-MMP act inh RFP | HIV Env fusion | eIF4H FP inh | others
CC(=O)c1c(C)oc2ccc(NS(=O)(=O)c3ccc(F)cc3C)cc12 | -10 | i | 0 | -2 | -2 | -18 | 0 | -8
CCOC(=O)c1sc(=S)n(C)c1NC(=O)c1ccccc1C | 4 | i | -2 | -5 | 3 | 5 | -20 | 9
CCn1nccc1C(=O)Nc1ccc(Cl)c(Cl)c1 | -15 | i | 6 | 6 | -6 | -4 | -152 | -13

The list itself, from the start:
SMILES | UUG fidelity | Rce1 inhib | PABP polyA inh | CSC inhib | MT1-MMP act inh | MT1-MMP act inh RFP | HIV Env fusion | eIF4H FP inh | others
CC(=O)c1c(C)oc2ccc(NS(=O)(=O)c3ccc(F)cc3C)cc12 | -10 | i | 0 | -2 | -2 | -18 | 0 | -8
CCOC(=O)c1sc(=S)n(C)c1NC(=O)c1ccccc1C | 4 | i | -2 | -5 | 3 | 5 | -20 | 9
CCn1nccc1C(=O)Nc1ccc(Cl)c(Cl)c1 | -15 | i | 6 | 6 | -6 | -4 | -152 | -13
COc1ccc(OC)c(Cc2nnc(CCC(=O)N3CCC(N4CCCCC4)CC3)o2)c1 | x | i | -3 | -4 | -4 | 0 | 6 | 7
O=C(O)C1CCN(C(=O)c2cc(F)cc3c2OCOC3)CC1 | -8 | i | -6 | 8 | 3 | 3 | -1 | -18
O=C(NCc1ccc(F)cc1F)c1cc(COc2c(F)cccc2F)on1 | x | i | -1 | 7 | -1 | 0 | -23 | 6
COc1ccccc1CN1CCC(n2nccc2NC(=O)CCOc2ccccc2)CC1 | -9 | i | -4 | -24 | 0 | 1 | -26 | 5
O=C1C2CC=C(Cl)CC2C(=O)N1CCc1ccccc1 (stereo unspecified) | 8 | i | 62 | 0 | -13 | -1 | -29 | 49 | eIF4H FP inh retest=-4;PABP polyA inh retest=-2
O=C(NCc1ccccc1F)C1CCCN1C(=O)NC1CCCCC1 (stereo unspecified) | -23 | i | -6 | -6 | 1 | 3 | -25 | -6
Cc1ccc2c(c1)N(CC(=O)N1CCc3ccccc3C1)C(=O)CO2 | -7 | i | 1 | x | -2 | 1 | 25 | -1
O=C(NC(NC(=S)Nc1cccc(Cl)c1)C(Cl)(Cl)Cl)OCc1ccccc1 (stereo unspecified) | -9 | i | -5 | 116* | -3 | -17 | x | -11
COCCn1c(C)cc(C(=O)CSc2nnc3ccccn23)c1C | -77 | i | 7 | -5 | 1 | 4 | u | -3
COc1cc2[nH]c(=S)n(N(C(C)=O)C(C)=O)c(=O)c2cc1OC | x | i | -2 | -4 | 1 | -1 | -56 | 3
Cc1ccc([C@H]2C[C@H](O)[C@@H](n3cc(C4CC4)nn3)CN2C(=O)C2CCCCC2)cc1 | 3 | x | x | x | 4 | 6 | -9 | x
O=C(COc1ccc(Cl)cc1)NCC(=O)N1CCC2(CC1)NCCc1[nH]cnc12 | -14 | i | x | -4 | 0 | -4 | -1 | x
COc1cccc(NC(=O)[C@H](C)NC(=O)C2CCN(S(=O)(=O)c3ccc(C)cc3)CC2)c1 | x | i | -7 | -11 | -3 | 0 | -3 | 2
Cc1cc(NC(=O)C2CCCN2C(=O)Nc2cccc(Cl)c2)ccc1-n1cnnn1 (stereo unspecified) | -16 | i | -2 | -8 | -3 | -1 | 0 | -5
C/C(=N\NC(=O)c1cc(Br)ccc1O)c1ccccn1 | -25 | i | 3 | 96* | 4 | -1 | x | 6
CCCCCCCOc1ccc(C2CC(=O)N(C)C2=O)cc1 (stereo unspecified) | 12 | i | 17 | 25 | 3 | 2 | -2 | -4
COc1ccc(OC)c(N2Cc3ccccc3C2)c1 | -18 | x | 4 | -3 | -8 | 3 | -67 | 18
O=C(O)COc1ccc(/C=N/n2c(COc3ccccc3)nc3ccccc3c2=O)cc1 | x | i | -2 | x | 11 | 2 | 3 | 1
COc1ccccc1CNC(=O)C1CCCN1S(=O)(=O)c1cccc2cccnc12 (stereo unspecified) | -17 | i | -1 | -9 | 1 | 4 | 57* | -3
O=[N+]([O-])c1ccc(O)c(/C=N/Nc2nc3ccccc3[nH]2)c1 | x | i | -2 | 102* | 1 | -16 | 26 | 8
C/C(=N\NC(=O)c1ccc(C)cc1C)c1ccc2c(c1)OCO2 | x | i | -8 | -1 | 0 | 9 | -11 | 8
Cc1cccc(Nc2ncnc(N)c2[N+](=O)[O-])n1 | -23 | i | 0 | 0 | -12 | -6 | -15 | -1
O=C(CCS(=O)(=O)c1ccc(Cl)cc1)Nc1ccc(F)cc1 | -19 | i | -4 | x | -2 | -1 | 11 | -3
CCCNS(=O)(=O)c1ccc(CCC(=O)N2CCC(C)CC2)cc1 | -5 | i | -8 | -7 | 3 | 9 | -5 | -8
CC(=O)CCSc1ncnc2sc(-c3ccccc3)cc12 | -13 | i | -5 | 12 | -1 | 1 | -239 | 3
CC1=CCC2C(=O)N(c3cccc(C(=O)Nc4ccc(Cl)cc4)c3)C(=O)C2C1 (stereo unspecified) | 17 | i | 0 | 0 | 4 | -8 | -16 | 0
N#Cc1ccc(-c2csc(NC3=NCCCCC3)n2)cc1 | x | i | 3 | x | -1 | -9 | 10 | 5
Cc1cc(-c2nnc(SCC(=O)Nc3nccs3)o2)no1 | -13 | i | 14 | 14 | 4 | 7 | -21 | 13
c1coc(CNc2c3c(nc4ncnn24)CCCC3)c1 | -24 | i | -1 | 9 | 10 | 1 | 4 | 4
NC(=O)C1(NC(=O)[C@@H]2CC3(CC(c4cccc(NC(=O)[C@@H]5CCC(=O)N5)c4)=NO3)CN2C(=O)c2cnccn2)CC1 (stereo partly specified) | -16 | i | 3 | -4 | 0 | 2 | -5 | -1
Cn1c(=O)c2[nH]c(N=Nc3ccc(N)cc3N)nc2n(C)c1=O | x | i | 6 | -3 | 5 | 3 | -1 | 10
CN(c1ccc(OCC(=O)OCC(=O)Nc2ccccc2)cc1)S(=O)(=O)c1ccc(F)cc1 | -2 | i | -7 | -7 | 11 | 13 | -1 | -2
CCOC(=O)C1(CCCc2ccccc2)CCN(C(=O)CCN2CCCCC2=O)CC1 | 0 | i | -3 | -9 | 1 | 0 | 0 | 5
O=[N+]([O-])c1ccccc1S(=O)(=O)N1CCN(c2ccccc2)CC1 | -32 | i | -14 | 18 | -2 | 0 | 3 | 4
CC(Cl)C(=O)c1c[nH]c2ccccc12 (stereo unspecified) | x | i | 16 | -3 | 3 | 6 | 24 | 10
CCOc1cc(C(c2c(C)[nH][nH]c2=O)c2c(C)[nH][nH]c2=O)cc(Br)c1OC | -27 | i | -4 | -11 | -1 | -2 | 10 | 8
O=C(Cn1[nH]c(=O)c2ccccc2c1=O)Nc1ccc2c(c1)CCC2 | -7 | i | 1 | x | -3 | 2 | -7 | 1
C/C(=N\NS(=O)(=O)c1ccc(Br)cc1)c1ccc(-n2ccnc2)cc1 | -7 | x | x | x | 0 | -2 | 1 | x
COc1ccccc1Nc1ccc2c(O)cc(S(=O)(=O)O)cc2c1 | 10 | x | x | x | 4 | 9 | -15 | x
CC1=CCC2C(=O)N(c3ccc(S(N)(=O)=O)cc3)C(=O)C2C1 (stereo unspecified) | -15 | i | 6 | x | 0 | 3 | 13 | -7
O=C(CN1CCN(Cc2cccc(Cl)c2)C1=O)NCc1ccccn1 | -17 | i | 7 | -13 | -2 | -1 | 13 | -8
O=C(Nc1ccccc1)Nc1ccc2c(c1)CCC2 | -9 | i | 2 | 12 | 2 | -3 | -107 | 3
CC1C(=O)NN=C1C(=O)N/N=C\c1ccc(O)cc1O (stereo unspecified) | -37 | i | -5 | x | 1 | 6 | -18 | 43
COc1ccc(C(=O)NCC(=O)OCC(=O)NC2CCCC2)cc1 | x | i | -1 | 9 | 7 | 10 | -35 | 10
CN(c1ccc(OCC(=O)Nc2ccc(S(N)(=O)=O)cc2)cc1)S(=O)(=O)c1ccc(F)cc1 | -17 | x | x | x | 2 | 0 | -10 | x
CCn1c(C(O)c2cc(OC)ccc2OC)nc2ccccc21 (stereo unspecified) | 0 | i | -1 | -6 | -2 | 4 | -80 | -6
Cc1ccc(/C=C2\SC(=S)N(CCCC(=O)Nc3nccs3)C2=O)cc1 | -9 | i | 2 | 18 | 1 | 1 | -11 | 1
COCCn1c(SCC(=O)Nc2sccc2C(N)=O)nnc1-c1ccncc1 | x | i | 16 | 5 | 1 | 3 | 10 | 30
C=CCNC(=S)N/N=C/c1ccc(C)c([N+](=O)[O-])c1 | x | x | -2 | 13 | 5 | 0 | 18 | -3
O=C(O)C1CCN(c2ccc([N+](=O)[O-])cc2[N+](=O)[O-])CC1 | -6 | i | 26 | -5 | 3 | 1 | 1 | 52 | eIF4H FP inh retest=37;PABP polyA inh retest=22
O=C(CN=C1NS(=O)(=O)c2ccccc21)OCC(=O)c1cc(F)ccc1F | -2 | i | 7 | 0 | 1 | -1 | 12 | 7
CNC(C)C(=O)NC(C(=O)N1CCCC1C(=O)Nc1ccc2[nH]ccc2c1)C(C)C (stereo unspecified) | -15 | x | x | x | 7 | 12 | -182 | x
Clc1ccc(Cl)c(OCCCCN2CCCCC2)c1 | 5 | i | 11 | -4 | 5 | 4 | 4 | 22
COC(=O)Cc1c(C)nc2nc(-c3ccc(OC)cc3)[nH]n2c1=O | -17 | i | -5 | -10 | 5 | 3 | -32 | -1
CC(C)=CC(=O)OCC(=O)Nc1ccc(F)cc1Cl | -6 | i | 1 | x | 0 | -3 | x | 0
COc1ccccc1/C=C/C=N/Nc1cccc(C(=O)O)c1 | -22 | i | 16 | -7 | 2 | 7 | -41 | 3
COc1ccc(-c2cc3c(c4c2ccn4C)C2CCC3C2)cc1OC (stereo unspecified) | -20 | x | x | x | -1 | 2 | -4 | x

(list continues)
SMILES | UUG fidelity | Rce1 inhib | PABP polyA inh | CSC inhib | MT1-MMP act inh | MT1-MMP act inh RFP | HIV Env fusion | eIF4H FP inh | others
CCCC(NC(=O)CNC(=O)C(C)(C)C)C(=O)O (stereo unspecified) | x | i | 3 | -13 | -2 | 2 | -15 | -4
Cc1ccc2c(c1)C(c1ccccc1)N(C(=O)c1ccc(F)cc1)CC(=O)N2 (stereo unspecified) | x | i | -13 | -3 | -1 | 2 | -2 | -1
CCOC(=O)C1CCCN(Cc2nc(Cc3ccccc3Cl)no2)C1 (stereo unspecified) | 8 | i | 1 | 4 | -5 | -1 | -12 | -2
COC(=O)CCCC1=CC2=C(c3ccccc3)C(=O)C(C)(OC(=O)C3CCCC3)C(=O)C2=CN1CC1CC1 (stereo unspecified) | -3 | i | -2 | 3 | 2 | 4 | -51 | 7
COc1ccc(-c2noc(C(C)NC(=O)c3ccco3)n2)cc1OC (stereo unspecified) | 2 | i | 0 | 3 | 0 | -2 | -4 | -8
CCNCc1ccccc1OCc1ccccc1 | x | i | -3 | 5 | 0 | 5 | 2 | 9
CN(C)c1oc(/C=C/c2cccs2)nc1S(=O)(=O)c1ccccc1 | -8 | i | 4 | -2 | -5 | -5 | 4 | -12
CCCCNCC#CCOc1cc(C)ccc1C(C)C | -16 | i | 16 | -2 | -3 | -4 | 36 | -4
Cc1[nH]c(=O)cc2ccccc12 | x | i | 24 | 4 | 1 | 3 | x | 1
